Bioassay records: PubChem BioAssay, several laboratories
Vif TR-FRET: inhibitors of Vif binding to APOBEC3G peptide, primary screen, biochemical, TR-FRET, GST-Vif 1-94, biotin-A3G peptide, dose response retest (AID 1117319); hit rate 0.57% among 260,000; one-dose inhibition, %; IC50 in µM for titrated hits; TR-FRET GST-Vif / biotin-A3G peptide binding; higher % means a stronger effect; test concentration not given here; strong numbers were not always called active;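 active means above the screen mean plus three standard deviations and confirmed in dose response; inconclusive means results disagree or hit not tested in dose response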;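 further: Vif residues 1-94 fused to GST binding biotinylated APOBEC3G peptide 110-148; 0% = full assay without inhibitor and 100% = GST in place of GST-Vif; retest series ran down from 100 µM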
E coli growth: E. coli growth inhibition. Escherichia coli growth, OD600, 23 h; stronger effect = lower value. OD600 absorbance (concentration not given with the values). hit rate 0.21% among 330,000;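 active means OD600 absorbance below the run mean of sample wells minus 3.6 SD, in any replicate, cut at about 0.56 in these data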;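 further: stock transfer was 300 nL into about 60 µL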
rRNA inh HTS: selective bacterial rRNA inhibition in E. coli. E. coli WT GFP vs humanized-ribosome RFP mutants, fluorescence, 24 h; stronger effect = lower value; DMSO median 0, no signal -100. GFP signal change (wild-type ribosome), % (no concentration beside the values). hit rate 1.6% among 350,000. AID 720706;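 active means significant combined selectivity score with lowered wild-type GFP, culture density cut under 30%, mutant RFP and density less affected; inactive means any of these conditions unmet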; further: one replicate is shown; some compounds called inactive have numbers as strong as hits
ALR H2O2 inh: inhibitors of human sulfhydryl oxidase ALR. inhibition, % (no concentration beside the values). hit rate 3.8% among 290,000. purified ALR, DTT oxidation, H2O2 HRP-luminol luminescence. P55789;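 active means mean and each replicate at 75% or more; inconclusive means only one of the two met; inactive means neither met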;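 further: stock transfer was 7.5 nL into about 7.5 µL; 0% = neutral wells and 100% = wells with inactivated enzyme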
Target sequence (P55789 whole entry, looked up): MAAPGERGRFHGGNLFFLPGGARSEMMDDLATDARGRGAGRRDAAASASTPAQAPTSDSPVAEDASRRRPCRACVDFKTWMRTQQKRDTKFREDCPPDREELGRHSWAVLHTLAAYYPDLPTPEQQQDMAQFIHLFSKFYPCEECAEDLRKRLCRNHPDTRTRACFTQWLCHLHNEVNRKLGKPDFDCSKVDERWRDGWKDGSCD
FGF22 binding: binders of recombinant human FGF22 by thermal shift. Q9HCT0. SYPRO orange fluorescence; percent of sucrose octasulfate shift, DMSO zero. calls only at 9.99 µM. hit rate 1.5% among 340,000;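 active means melting point raised past a set limit in the mean and every replicate; inconclusive means no clear call; three in four hits are not shown here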
Target sequence (Q9HCT0 whole entry, looked up): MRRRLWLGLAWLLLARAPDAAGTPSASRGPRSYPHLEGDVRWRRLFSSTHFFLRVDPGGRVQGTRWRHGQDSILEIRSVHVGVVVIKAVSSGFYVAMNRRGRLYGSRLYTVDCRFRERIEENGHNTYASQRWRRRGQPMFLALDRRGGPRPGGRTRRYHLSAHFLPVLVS
AF4-AF9 inh: blocks AF4 peptide binding to human AF9 | P42568 | AlphaScreen, biotin-AF4 peptide binding to FLAG-AF9 | inhibition, % at 10 µM | hit rate 0.47% among 350,000 | AID 651704;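 active means every replicate reaching a set inhibition limit, whatever the replicate mean, cut at about 25% in these data; inconclusive means mean inhibition reaches that limit but some replicates miss it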;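 further: 0% = plate neutral control median and 100% = total signal loss; the record names both 10 and 1 µM as test concentration; the first replicate is given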
HNF4A DNA FP: change in binding of human HNF4 alpha to DNA; P41235; activity change, % at 10 µM; HNF4a-FITC DNA binding, fluorescence polarization, 1 h; hit rate 0.3% among 360,000; in the data active means activity change above about 30%, passing the limit was not always enough;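 further: controls were the assay level and a saturating level of protein; the project sought stronger binding though the title names inhibitors; some compounds called inactive have numbers as strong as hits; positive values seem to mean higher polarization but the record does not say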
Target sequence (P41235 whole entry, looked up): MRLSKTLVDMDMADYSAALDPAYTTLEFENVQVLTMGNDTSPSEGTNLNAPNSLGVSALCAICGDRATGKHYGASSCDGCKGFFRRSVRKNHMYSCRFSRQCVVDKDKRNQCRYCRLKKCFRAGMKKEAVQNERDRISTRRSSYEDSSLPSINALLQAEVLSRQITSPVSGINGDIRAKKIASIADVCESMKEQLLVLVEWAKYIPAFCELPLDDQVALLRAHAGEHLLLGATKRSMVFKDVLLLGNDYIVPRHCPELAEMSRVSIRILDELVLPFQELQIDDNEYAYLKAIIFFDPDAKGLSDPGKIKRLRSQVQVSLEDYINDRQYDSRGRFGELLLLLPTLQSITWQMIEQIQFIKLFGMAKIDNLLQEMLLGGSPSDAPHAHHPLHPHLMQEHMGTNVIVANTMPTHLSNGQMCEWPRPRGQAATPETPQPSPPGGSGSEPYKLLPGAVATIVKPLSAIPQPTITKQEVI
rRNA inh HTS OD600: second read-out of rRNA inh HTS, no call of its own (marks repeat the call); OD600 change, %; measured here: OD600 growth;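 optical density of the mix in the first replicate; 0 = DMSO median and -100 = no signal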
rRNA inh HTS RFP: further read-out of rRNA inh HTS, marked with its call; RFP signal change, %; measured here: RFP humanized mutant strains;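 first replicate; 0 = DMSO median and -100 = no signal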
An asterisk follows results filed as active; i = inactive; ? = inconclusive; nt = not tested or not shown; + = active, no number; & = joins results of further samples.

SMILES	Vif TR-FRET	E coli growth	rRNA inh HTS	rRNA inh HTS OD600	rRNA inh HTS RFP	ALR H2O2 inh	FGF22 binding	AF4-AF9 inh	HNF4A DNA FP
C[C@H]1CN([C@@H](C)CO)C(=O)c2cc(-c3ccc(F)cc3)cnc2O[C@@H]1CN(C)CC1CCOCC1	nt	nt	5	11	-2.9	nt	i	-2.3	nt
COc1ccc(CN(C)C(=O)Cn2ccc(N)nc2=O)cc1OC	nt	0.69	nt	nt	nt	3	nt	nt	2.1
Cc1cccn2c(=O)c(/C=C(\C#N)S(=O)(=O)c3ccccc3)c(N3CCC(C(N)=O)CC3)nc12	4%	0.68	nt	nt	nt	0	nt	nt	0.3
O=S(=O)(Nc1ccc(C(F)(F)F)cc1)c1cnc[nH]1	25%	0.69	nt	nt	nt	-5	nt	nt	0.4
O=C(c1cccs1)N1CCN(C2CCCCC2)CC1	12%	0.67	nt	nt	nt	3	nt	nt	-0.2
CC(C)(C)S(=O)(=O)N1Cc2cc(CO)ccc2[C@H]1CCO	nt	nt	4	9	3.3	nt	i	0.9	nt
Cn1cc(C(=O)NS(=O)(=O)Nc2ccc(Br)cc2)c2ccccc21	nt	0.67	1	-1	-0.9	-1	i	0.5	-2.4
CCN(CC)CCCN(Cc1cc2ccc(C)c(C)c2[nH]c1=O)C(=O)NC1CCCCC1	4%	0.69	nt	nt	nt	3	nt	nt	-2.7
CCCC1=C(C(=O)OCC)C(c2cccnc2)n2nc(C)nc2N1 (stereo not drawn)	21%	0.69	19	7	0.0	nt	i	0.1	-4.4
O=C(COC(=O)c1ccco1)Nc1cccc(Br)c1	-4%	0.68	nt	nt	nt	0	nt	nt	2.1
C[C@H](CO)N1C[C@H](C)[C@@H](CN(C)Cc2ccc(Cl)c(Cl)c2)OCc2ccccc2-c2ccccc2C1=O	nt	nt	-8	-13	3.3	nt	i	-0.2	nt
Cc1noc(C)c1NC(=O)N(C)C[C@@H]1Oc2c(NS(=O)(=O)c3ccccc3)cccc2C(=O)N([C@H](C)CO)C[C@H]1C	nt	nt	5	10	-1.0	nt	i	0.6	nt
Cc1ccc(-c2ccccc2[C@@H]2[C@@H](C#N)N(C(=O)Cc3cccnc3)[C@H]2CO)cc1	nt	nt	-9	-9	-0.8	nt	i	-1.4	nt
COc1ccccc1NC(=O)CSc1nccn1Cc1ccccc1	-2%	0.7	-16	-15	-2.9	-33	i	5.2	2.7
CO/N=C1\CCCc2c(C(=O)NN)sc(SC)c21	3%	nt	-2	-3	12	nt	i	3.9	3.1
COc1cccc(C(=O)Nc2ccc3c(c2)OC[C@H](C)NC[C@H](C)[C@H](OC)CN(C)C3=O)c1	nt	nt	1	2	-1.3	nt	i	-4.1	nt
COc1cc(C(CCN2CCN(c3ccccc3)CC2)c2c(OC)cc(OC)c3ccc(=O)oc23)cc(OC)c1OC (stereo not drawn)	nt	0.71	7	14	-11	-7	i	12	6.2
C[C@@H]1CN([C@H](C)CO)C(=O)Cc2cc(NC(=O)Cc3ccccc3)ccc2O[C@@H]1CN(C)Cc1ccc2c(c1)OCO2	nt	nt	-7	-10	2.0	nt	i	1.2	nt
CN(C(=O)c1ccccc1[N+](=O)[O-])c1ccccc1C(=O)NCc1ccccc1	3%	0.68	9	4	-1.2	-15	i	-0.1	1.3
Oc1ccc(NC(=S)N=Nc2c(O)[nH]c3ccccc23)cc1	?	0.64	-68	-77	-26	5	i	16	2.9
COc1cc(/C=N/NC(=O)CCOc2ccccc2C)cc(Br)c1O	?	nt	-20	-21	1.5	97*	i	2.2	0.3
Cc1ccccc1Nc1cc2ccccc2c(=O)[nH]1	29%	0.79	nt	nt	nt	-17	nt	nt	-4.8
COc1cc(C(=O)N(C)CC(=O)Nc2cccc(F)c2)ccc1OCc1ccccc1	-4%	0.66	-5	-22	1.0	-3	nt	0.7	-1.5
Cc1cc(NC(=O)Nc2ccccc2F)ccc1Br	-4%	0.67	-37	-61	-2.1	-2	i	-3.5	-0.3
O=C1CSc2ccc(S(=O)(=O)NCc3ccc(F)cc3)cc2N1	3%	0.69	-19	-10	0.7	-7	i	-8.2	5.0
Additional entries:
SMILES	Vif TR-FRET	E coli growth	rRNA inh HTS	rRNA inh HTS OD600	rRNA inh HTS RFP	ALR H2O2 inh	FGF22 binding	AF4-AF9 inh	HNF4A DNA FP
COc1ccc(OC)c(S(=O)(=O)NCCCn2ccnc2)c1	nt	0.65	5	8	-1.3	-9	i	3.6	1.2
CCCCN(C)CCCNC(=O)c1cc(-c2cccnc2)nc2ccccc12	2%	0.68	3	3	-0.3	-11	i	-12	-2.8
C(#Cc1ccccc1)Cn1nnc2ccccc21	-1%	0.64	nt	nt	nt	-2	nt	nt	-1.4
O=C(C[C@H]1CC[C@H]2[C@@H](COC[C@@H](O)CN2S(=O)(=O)c2ccc(F)cc2)O1)N1CCc2ccccc2C1	nt	nt	-5	-17	3.5	nt	i	-0.6	nt
C/C=C/c1ccc2c(c1)O[C@@H](CN(C)C(=O)CC1CC1)[C@H](C)CN([C@H](C)CO)S2(=O)=O	nt	nt	-1	-10	1.5	nt	i	0.9	nt
O=C(N[C@H]1CC[C@H](CCn2cc(-c3ccccc3)nn2)O[C@@H]1CO)c1ccccc1F	nt	nt	-3	3	-0.4	nt	i	-2.4	nt
COc1ccc(C(CNC(=O)C(=O)Nc2ccc3c(c2)OCCO3)N2CCN(C)CC2)cc1 (stereo not drawn)	1%	0.64	-2	-1	-1.9	-1	i	-7.6	0.5
CCCCN1C(=O)C(CC(=O)NCCCN(C)C)CC(C(=O)N2CCCCCC2)=C1C (stereo not drawn)	nt	nt	nt	nt	nt	nt	i	-4.7	3.2
Cc1ccc(S(=O)(=O)CCC(=O)OCc2cc(=O)oc3cc(C)ccc23)cc1	nt	0.71	11	14	0.3	9	i	-2.3	0.1
O=C(CCc1ccccc1F)N1CCN(c2ccc(C(F)(F)F)cn2)CC1	-2%	nt	-2	1	-2.5	-33	i	-6.5	-4.0
COc1cc(CNc2cccc3[nH]c(C(F)(F)F)nc23)cc(OC)c1	5%	0.66	22	24	2.8	-1	i	1.9	0.8
COc1ccc(CCC(=O)Nc2ccc(S(=O)(=O)N3CCOCC3)cc2)cc1	3%	0.66	0	-15	1.2	-6	i	-0.9	-0.5
O=C(CC1Nc2c3ccccc3nc(=S)n2C1=O)NC1CCCCC1 (stereo not drawn)	-13%	0.68	4	10	-3.1	-1	i	-4.3	nt
CCNC(=O)NC(=O)C(C)OC(=O)C1CCN(S(=O)(=O)c2ccccc2C(=O)OC)CC1 (stereo not drawn)	nt	0.72	6	-9	-2.3	0	i	-1.7	-4.1
O=C(CSc1nc(Nc2ccccc2)nc(N2CCOCC2)n1)N1CCCC1	8%	0.73	nt	nt	nt	2	nt	nt	-0.8
O=S(=O)(NCc1cccnc1)c1ccc(Cl)cc1	nt	0.67	5	7	3.5	-8	i	-0.2	-2.0
CCOc1ccc(N2C(=O)C3Sc4[nH]c(=O)sc4C(c4ccc(OC)c(OC)c4)C3C2=O)cc1 (stereo not drawn)	23%	0.69	2	-3	0.6	22	i	-13	-2.3
C[C@@H]1CN([C@@H](C)CO)C(=O)Cc2cc(NC(=O)C3CC3)ccc2O[C@@H]1CN(C)CC1CCCCC1	nt	nt	6	9	-0.9	nt	i	-0.6	nt
O=C(Nc1ccc(Cl)cc1)c1csc(-c2ccccc2)n1	?	0.73	nt	nt	nt	0	nt	nt	-2.5
CCOC(=O)c1cc2c(=O)n3ccccc3nc2n(CC2CCCO2)c1=NC(C)=O (stereo not drawn)	nt	0.69	nt	nt	nt	-11	nt	nt	3.3
Cc1onc(-c2c(F)cccc2Cl)c1C(=O)Nc1nc2c(s1)CCCC2	?	0.67	-20	-10	15	-2	i	1.4	1.1
CC(=O)N1c2ccccc2N2C(c3c(C)c(C)cc(C)c3C)=NON12	nt	0.68	-40	-67	-9.9	nt	i	-0.2	-0.7
CO/N=C/C1C(=O)NN=C1c1ccccc1 (stereo not drawn)	nt	nt	19	13	-1.6	1	i	-2.3	-0.5
CC(=O)Nc1ccc(Nc2nnc(-c3ccc(O)cc3)c3ccccc23)cc1	-8%	0.65	-33	-34	-11	84*	i	5.8	-0.2
Cc1ccc(N2CCN(CCCCN3C(=O)C4CCCN4C3=O)CC2)cc1 (stereo not drawn)	?	0.67	nt	nt	nt	28	nt	nt	-0.8

2 entries from above, with bars between the fields:
SMILES | Vif TR-FRET | E coli growth | rRNA inh HTS | rRNA inh HTS OD600 | rRNA inh HTS RFP | ALR H2O2 inh | FGF22 binding | AF4-AF9 inh | HNF4A DNA FP
O=S(=O)(Nc1ccc(C(F)(F)F)cc1)c1cnc[nH]1 | 25% | 0.69 | nt | nt | nt | -5 | nt | nt | 0.4
O=C(c1cccs1)N1CCN(C2CCCCC2)CC1 | 12% | 0.67 | nt | nt | nt | 3 | nt | nt | -0.2

Next section:
SMILES	Vif TR-FRET	E coli growth	rRNA inh HTS	rRNA inh HTS OD600	rRNA inh HTS RFP	ALR H2O2 inh	FGF22 binding	AF4-AF9 inh	HNF4A DNA FP
CO[C@H]1CN(C)C(=O)c2cc(NC(C)=O)ccc2OC[C@H](C)N(C(=O)C2CCCCC2)C[C@@H]1C	nt	nt	-1	3	-0.6	nt	i	0.0	nt
CCc1ccccc1NC(=S)NCC1CCN(c2ccc(OC)cc2)C1 (stereo not drawn)	13%	0.67	-18*	-8.5*	4.2*	36	i	16	2.5
COc1ccc(NC(=O)N(C)C[C@H]2Oc3c(NS(=O)(=O)c4ccc(Cl)cc4)cccc3C(=O)N([C@@H](C)CO)C[C@@H]2C)cc1	nt	nt	-1	2	-1.2	nt	i	-2.1	nt
Cc1ccccc1SCC(=O)N/N=C/c1ccc(F)cc1	-6%	nt	-10	-5	2.9	-2	i	-1.9	5.1
CC(=O)N(C)C[C@@H]1Oc2ncc(C#Cc3cccc(F)c3)cc2C(=O)N([C@H](C)CO)C[C@@H]1C	nt	nt	8	-2	-1.7	nt	i	3.8	nt
COc1ccccc1CCNC(=O)c1ccoc1C	0%	0.7	nt	nt	nt	18	nt	nt	2.2
Cc1cc(=O)[nH]c(Nc2ccc(Cl)cc2)n1	4%	0.65	-1	-6	-4.7	nt	i	-1.3	-0.1
CCCCNc1c(-c2ccc(OC)c(SC3CCCCC3)c2)nc2ccc(C)cn12	nt	0.73	-14&-1	-22&8	-6.2&0.8	nt	i	10&10	2.7&12
CC(C)CC#Cc1cnc2c(c1)C(=O)N([C@H](C)CO)C[C@H](C)[C@H](CN(C)Cc1cncnc1)O2	nt	nt	3	14	0.3	nt	i	-2.5	nt
C[C@H](CO)N1C[C@H](C)[C@H](CN(C)S(=O)(=O)c2ccc(Cl)cc2)OCCCC[C@H](C)Oc2ccc(NC(=O)CCC(F)(F)F)cc2C1=O	nt	nt	-1	-3	-1.2	nt	i	2.4	nt
Cc1c(CCOC(=O)c2ccc(N3CCOCC3)c([N+](=O)[O-])c2)sc[n+]1CC#N	nt	0.7	7	1	5.1	5	i	-77	0.4
CC1CCN(c2c(NCC3CCC(C(=O)Nc4ccccn4)CC3)c(=O)c2=O)CC1 (stereo not drawn)	-3%	0.71	-3	2	-1.0	nt	i	-5.5	3.1
CCCCN1CC(N2CCN(Cc3cccc(C)c3)CC2)CS1(=O)=O (stereo not drawn)	nt	nt	2	7	-1.6	nt	+	-1.9	3.8
O=C1/C(=C\c2ccc(Cl)cc2)CCC1CNc1ccc(Cl)cc1 (stereo not drawn)	0%	nt	-14	-17	4.7	nt	i	-1.9	6.9
CCCCC(=O)Nc1ccccc1Oc1ccccc1	nt	nt	-34	-41	-11	nt	i	3.8	1.4
CCc1cc(=O)oc2cc(OCC(=O)NC3CC(C)(C)NC(C)(C)C3)ccc12	nt	0.7	4	9	-0.9	3	i	-0.5	-2.1

A portion of the library (hit frequency here may not be typical).
